Vif TR-FRET = HIV-1 Vif–A3G interaction blockers – biochemical, TR-FRET, GST-Vif 1-94, biotin-A3G peptide, dose response retest, primary screen (AID 1117319); TR-FRET GST-Vif / biotin-A3G peptide binding; higher % means a stronger effect; test concentration not given here; strong numbers were not always called active; inhibition, %; hits with a dose series show IC50 in µM; hit rate 0.57% among 260,000;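 active means above the screen mean plus three standard deviations and confirmed in dose response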;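 further: Vif residues 1-94 fused to GST binding biotinylated APOBEC3G peptide 110-148; 0% = full assay without inhibitor and 100% = GST in place of GST-Vif; retest series ran down from 100 µM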
MLL AF4-AF9 inh = inhibitors of human MLL-AF4/AF9 interaction; hit rate 0.47% among 350,000; AlphaScreen, biotin-AF4 peptide binding to FLAG-AF9; P42568; inhibition, % at 10 µM;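 active means every replicate reaching a set inhibition limit, whatever the replicate mean, cut at about 25% in these data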;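 further: 0% = plate neutral control median and 100% = total signal loss; the record names both 10 and 1 µM as test concentration; the first replicate is given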
Target sequence (P42568 whole entry, looked up): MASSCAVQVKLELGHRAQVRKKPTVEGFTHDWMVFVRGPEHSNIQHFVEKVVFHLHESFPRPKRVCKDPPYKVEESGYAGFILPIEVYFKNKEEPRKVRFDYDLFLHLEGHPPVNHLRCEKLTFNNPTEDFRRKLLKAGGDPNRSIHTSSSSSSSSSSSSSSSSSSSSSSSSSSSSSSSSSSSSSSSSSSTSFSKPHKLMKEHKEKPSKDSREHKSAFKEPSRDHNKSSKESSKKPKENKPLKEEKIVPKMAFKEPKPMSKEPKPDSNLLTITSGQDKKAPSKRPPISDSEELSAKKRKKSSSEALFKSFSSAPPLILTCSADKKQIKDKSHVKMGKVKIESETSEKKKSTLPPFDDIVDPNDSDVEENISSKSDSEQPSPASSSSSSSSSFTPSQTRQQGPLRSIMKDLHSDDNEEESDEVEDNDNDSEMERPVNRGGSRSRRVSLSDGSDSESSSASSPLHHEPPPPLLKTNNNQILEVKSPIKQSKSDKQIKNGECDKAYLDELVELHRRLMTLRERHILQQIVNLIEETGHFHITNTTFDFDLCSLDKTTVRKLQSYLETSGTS
Ecoli rRNA inh = inhibits bacterial ribosomal RNA function over humanized ribosomes | E. coli WT GFP vs humanized-ribosome RFP mutants, fluorescence, 24 h; stronger effect = lower value; DMSO median 0, no signal -100 | GFP signal change (wild-type ribosome), % (concentration not given with the values) | hit rate 1.6% among 350,000;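 active means significant combined selectivity score with lowered wild-type GFP, culture density cut under 30%, mutant RFP and density less affected; inactive means any of these conditions unmet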; further: one replicate is shown; some compounds called inactive have numbers as strong as hits
Ecoli rRNA inh OD600 = further read-out of Ecoli rRNA inh, marked with its call; OD600 change, %; measured here: OD600 growth;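 optical density of the mix in the first replicate; 0 = DMSO median and -100 = no signal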
Ecoli rRNA inh RFP = second read-out of Ecoli rRNA inh, no call of its own (marks repeat the call); RFP signal change, %; measured here: RFP humanized mutant strains;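 first replicate; 0 = DMSO median and -100 = no signal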
Numbers without * were called inactive; & = joins results of further samples.

| Vif TR-FRET | MLL AF4-AF9 inh | Ecoli rRNA inh | Ecoli rRNA inh OD600 | Ecoli rRNA inh RFP | SMILES |
| --- | --- | --- | --- | --- | --- |
| 5.9% | 2.4 | -0.6 | 0.9 | -2.3 | COc1cc(/C=C2\SC(=O)N(Cc3ccc(Cl)cc3)C2=O)cc([N+](=O)[O-])c1O |
| 4.3% | 0.6 | 5.3 | 0.0 | -1.7 | Cc1cccnc1NS(=O)(=O)c1ccccc1 |
| -0.4% | 2.7 | 9.5 | 3.5 | -0.5 | CC(C)C[C@H]1CNC(=S)N1CC1CCCN1C[C@H](CC(C)C)N1C[C@H](Cc2ccc(O)cc2)N(CC2CCCCC2)C1=S (some centres not stated) |
| 2.8% | -1.4 | 9.8 | 5.8 | -0.5 | Cc1ccc(OCC(=O)NNC(=O)C2CSC3(C)CCC(=O)N23)cc1C (configuration not stated) |
| -1.2% | -2.5 | -2.5 | -5.7 | -3.7 | COc1ccc(C(=O)CC(C#N)c2ccc3c(c2)OCO3)cc1OC (configuration not stated) |
| -0.6% | -0.7 | 10.4 | 9.4 | 0.7 | CCN1C[C@@H]2[C@@H]3C(=O)N(C)C(=O)[C@@H]3[C@](Cc3ccccc3)(C(=O)OC)N2C1=NCc1ccccc1 |
| 17.4% | -4.3 | -34.9 | -67.2 | -9.2 | C=CCNc1ccccc1S(=O)(=O)NCc1ccccc1 |
| 4.5% | -2.3 | 15.9 | 3.0 | 37.8 | CCC1=C(CC2NCCc3ccccc32)CC2c3cc(OC)c(OC)cc3CCN2C1 (configuration not stated) |
| -6.7% | 0.9 | -4.2 | -3.5 | -1.9 | O=C(CCN1C(=O)c2ccccc2C1=O)c1ccccc1 |
| 9.9% | -0.7 | 0.0 | 1.7 | 1.3 | O=C(NCCSSCCNC(=O)c1ccccc1)c1ccccc1 |
| -1.1% | -0.1 | -3.4 | 19.9 | 0.5 | O=[N+]([O-])c1cc(S(=O)(=O)N2CCOCC2)ccc1N1CCNCC1 |
| -16.2% | -3.7 | -30.7 | -48.4 | -9.5 | Cc1ccc(C(=O)OC(C)C(=O)NC2CCCCC2)cc1S(=O)(=O)N1CCCCC1 (configuration not stated) |
| -5.1% | 3.2 | 42.8 | 12.0 | 16.6 | Oc1cccnc1CN1CCOCC1 |
| -1.8% | -2.1 | 3.4 | 9.9 | 0.7 | CC(=O)NC1CCCC(NC(C)=O)C1 (configuration not stated) |
| -0.3% | 0.2 | 1.6 | 3.6 | 0.9 | CSc1ncnc2c1ncn2CCCN[C@H](C)c1cccc2ccccc12 |
| -7.2% | -2.2 | -3.2 | 3.5 | -1.0 | COc1ccc(C(CNC(=O)c2ccc(NS(=O)(=O)c3ccccc3)cc2)N2CCOCC2)cc1 (configuration not stated) |
| 11.3% | 3.9 | -4.1 | 0.1 | 1.1 | CN=c1scc(-c2c[nH]c3ccccc23)n1C |
| -3.5% | -2.8 | 5.1 | 9.5 | 0.9 | CC(C)(C)OC(=O)N1CCc2onc(-c3ccc(N)cc3)c2C1=O |
| 2.5% | 5.3 | 6.8 | 7.0 | -1.4 | O=c1[nH]nc(-c2ccc[nH]2)[nH]1 |
| -1.7% | -2.5 | 3.9 | 17.4 | -5.7 | O=C(Nc1ccc(Cl)cc1)P(=O)(O)c1ccccc1 |
| -2.1% | 1.3 | 3.6 | 2.0 | 2.1 | Cc1ncc(C)c2c([N+](=O)[O-])cccc12 |
| -3.8% | -0.6 | 23.1 | 12.8 | 3.5 | CCCCCCN(C(=O)CCCN1C(=O)NC(c2ccc(-c3ccccc3)cc2)C(C(=O)OCc2ccccc2)=C1C)C(C)C(=O)NCCCC (configuration not stated) |
| -8.1% | 1.4 | -5.3 | -6.1 | -2.1 | CCN(CC)S(=O)(=O)c1ccc(CNC(=O)CN2C(=O)NC3(CCc4ccccc43)C2=O)cc1 (configuration not stated) |
| 2.4% | 0.1 | 4.3 | -0.6 | 2.5 | CCOc1cc(C=NNC(=O)CCCC(=O)NN=Cc2ccc(O)c(OCC)c2)ccc1O |
| 2.1% | -3.3 | -31.7 | -53.9 | -6.0 | NC1=CC(=O)C(=O)c2cccnc21 |
| 0.1% | -3.6 | -47.9 | -71.7 | -13.8 | CC(=O)N(c1ccccc1)C(C(=O)c1ccccc1)c1ccccc1 (configuration not stated) |
| -18.4% | -9.7 | 2.6 | 3.4 | -1.9 | CC(=O)N1CCN(S(=O)(=O)c2cccc(C(=O)Nc3ccccc3N3CCCCC3)c2)CC1 |
| 5.4% | 0.4 | -25.4 | -50.5 | -7.7 | CN(CC(=O)Nc1ccccc1Br)C(=O)c1ccccc1OCc1ccccc1Cl |
| -0.3% | 0.5 | -3.6 | -22.0 | -6.6 | COc1ccccc1NC(=S)NN=C(C)c1ccccn1 |
| -7.2% | 0.2 | 5.2 | -0.8 | 5.7 | C#CCN(C[C@@H]1[C@@H](OC(=O)NCc2ccco2)[C@@H](OC(=O)NCc2ccco2)Cn2c(=O)n(CCCCCC)c(=O)n21)S(=O)(=O)c1ccc(C)cc1 |
| -0.9% | 4.6 | -4.7 | -41.1 | 2.4 | CC(C)(C)c1ccc(OCCC(=O)Nc2cccc(S(=O)(=O)NC3=NCCCCC3)c2)cc1 |
| -1.5% | -2.3 | 10.0 | 21.2 | -0.5 | CCCCCCN1C[C@H](n2cc(-c3ccc(F)cc3)nn2)[C@@H](O)C[C@@H]1c1ccc(Cl)cc1 |
| -11.6% | -5.8 | -11.8 | -31.5 | -3.9 | CC(=O)Nc1ccc(SC(Sc2ccc(NC(C)=O)cc2)c2ccccc2)cc1 |
| 7.4% | 2.4 | -12.0 | -48.2 | -3.1 | COc1ccc(-c2nc(NC(=O)c3ccco3)sc2C)cc1 |
| 4.1% | 3.5 | -2.2 | -10.8 | 1.3 | CN(C(=O)c1cccc(NC(=O)Cc2cccc(NC(=O)C3CCN(C(=O)C4CCCCC4)CC3)c2)c1)C1CC1 |
| -4.7% | -0.1 | -3.8 | -4.2 | -6.6 | COc1ccc(NC(=O)c2sc3nc(N4CCOCC4)c4c(c3c2N)CCCC4)cc1 |
| 0.8% | 1.8&-0.6 | 8.1&0.5 | 11.2&1.3 | -0.8&1.5 | C[C@H]1CN([C@@H](C)CO)C(=O)CCCn2nncc2CO[C@H]1CN(C)C(=O)Nc1cccc(Oc2ccccn2)c1 |
| 12.1% | 2.8 | -6.6 | -8.7 | -1.0 | COc1ccc(S(=O)(=O)N2CC=C(c3ccccc3)CC2)cc1OC |
| 2.0% | -5.9 | 11.2 | 14.6 | -0.2 | CCN(CC)c1ncnc2c1nnn2C |
| 6.5% | -7.5 | 7.2 | 12.0 | 2.5 | [O-][N+](=C(c1ccccc1)c1ccccc1)c1ccccc1 |
| 7.5% | 0.5 | -9.8 | 13.1 | 15.0 | CN1C/C(=C/c2ccccc2[N+](=O)[O-])C(=O)/C(=C\c2ccccc2[N+](=O)[O-])C1 |
| 1.2% | -1.6 | -22.2* | -6.3* | 8.9* | CC[C@]1(C(=O)OC)[C@H]2C(=O)N(Cc3ccccc3)C(=O)[C@H]2[C@H]2CN=C(SCc3ccc(C#N)cc3)N21 |
| 0.2% | 0.4 | 3.8 | 6.3 | -2.6 | CCCCNC(=O)c1ccccc1C(=O)NC1(C(=O)NCCCC)CCCC1 |
| -4.4% | 0.9 | -1.4 | -1.5 | -1.1 | O=C1c2ccccc2C(=O)N1C1C(=O)N2CCSC12C(=O)OCc1ccccc1 (configuration not stated) |
| -3.1% | -0.2 | 0.3 | 8.4 | -0.9 | COc1ccc(S(=O)(=O)N2CCCCC2)cc1C(=O)NC1CCS(=O)(=O)C1 (configuration not stated) |
| 11.3% | -0.1 | 9.0 | 12.6 | -1.1 | COc1ccccc1OCCNC(=O)CCC(=O)N1CCOCC1 |
| -35.5% | -0.1 | 2.4 | 2.7 | 2.5 | O=c1ccc(S(=O)(=O)N2CCCC2)cn1Cc1nc(-c2ccc(F)cc2)no1 |
| 0.3% | 0.0 | 5.9 | 8.6 | -3.0 | C[C@@H]1C(c2cccc(Cl)c2)=NN(c2ccccc2)[C@H]1C(=O)N1CCOC1=O |
| -3.3% | -0.7 | 28.8 | 24.5 | 3.1 | O=C1OCC2=C1C(c1ccc3c(c1)OCO3)c1cc3c(cc1O2)OCO3 (configuration not stated) |
| -5.0% | 2.1 | -1.1 | 2.0 | 2.8 | Cn1ncc([N+](=O)[O-])c1C(=O)Nc1ccccc1C#N |
| 3.6% | 0.5 | 4.3 | -3.0 | 4.1 | Nc1nc(SCc2ccccc2)cc(SCc2ccccc2)n1 |
| 7.1% | 4.6 | 1.3 | 5.4 | -5.1 | CC[C@]12c3[nH]c4ccc(Cl)cc4c3CCN1C(=O)[C@@H](CC(=O)NCC13CC4CC(CC(C4)C1)C3)C[C@@H]2C(=O)N1CCN(C(=O)c2ccco2)CC1 |
| 0.8% | -2.2 | -19.9 | -31.1 | 3.5 | O=C(O)c1cccc2c1Cc1cc([N+](=O)[O-])ccc1-2 |
| -7.2% | -12.3 | 22.0 | 14.2 | 43.3 | CC[C@]12c3[nH]c4cc(-c5ccco5)ccc4c3CCN1C(=O)[C@@H](CC(=O)NCc1cccc(C(F)(F)F)c1)C[C@@H]2C(=O)N1CCN(C(=O)C2CC2)CC1 |
| -3.6% | 5.6 | 10.1 | 3.5 | -1.6 | CN(CC(=O)Nc1ccc(F)c(F)c1F)C(=O)C1CC(=O)N(C2CCCC2)C1 (configuration not stated) |
| -4.8% | -0.4 | 13.8 | 9.1 | -0.4 | CC1(C)N=C(c2ccccc2)C(c2ccccc2)=N1 |
| 2.0% | -6.4 | 13.9 | 8.3 | -0.8 | Cc1cccc(NC(=O)Oc2ccc(Cl)c3cccnc23)c1 |
| -1.7% | -1.3 | 5.3 | 5.5 | 0.4 | COc1ccc(CCNC(=O)CCCn2c(=S)[nH]c3cc4c(cc3c2=O)OCO4)cc1OC |
| -8.5% | -46.5 | 4.2 | 12.2 | 1.7 | Cc1nc(N)[nH]c(=O)c1CCCNS(=O)(=O)c1ccc([N+](=O)[O-])cc1 |
| -3.8% | 6.2 | -0.3 | 5.4 | 2.9 | COc1ccc(C(CCN2CCOCC2)c2c(OC)cc(OC)c3ccc(=O)oc23)cc1 (configuration not stated) |

Some of these compounds in order of heavy-atom count, descending:
| Vif TR-FRET | MLL AF4-AF9 inh | Ecoli rRNA inh | Ecoli rRNA inh OD600 | Ecoli rRNA inh RFP | SMILES |
| --- | --- | --- | --- | --- | --- |
| -7.2% | -12.3 | 22.0 | 14.2 | 43.3 | CC[C@]12c3[nH]c4cc(-c5ccco5)ccc4c3CCN1C(=O)[C@@H](CC(=O)NCc1cccc(C(F)(F)F)c1)C[C@@H]2C(=O)N1CCN(C(=O)C2CC2)CC1 |
| 7.1% | 4.6 | 1.3 | 5.4 | -5.1 | CC[C@]12c3[nH]c4ccc(Cl)cc4c3CCN1C(=O)[C@@H](CC(=O)NCC13CC4CC(CC(C4)C1)C3)C[C@@H]2C(=O)N1CCN(C(=O)c2ccco2)CC1 |
| -4.4% | 0.9 | -1.4 | -1.5 | -1.1 | O=C1c2ccccc2C(=O)N1C1C(=O)N2CCSC12C(=O)OCc1ccccc1 (configuration not stated) |
| 0.3% | 0.0 | 5.9 | 8.6 | -3.0 | C[C@@H]1C(c2cccc(Cl)c2)=NN(c2ccccc2)[C@H]1C(=O)N1CCOC1=O |
| -3.3% | -0.7 | 28.8 | 24.5 | 3.1 | O=C1OCC2=C1C(c1ccc3c(c1)OCO3)c1cc3c(cc1O2)OCO3 (configuration not stated) |
| -8.5% | -46.5 | 4.2 | 12.2 | 1.7 | Cc1nc(N)[nH]c(=O)c1CCCNS(=O)(=O)c1ccc([N+](=O)[O-])cc1 |
| -4.8% | -0.4 | 13.8 | 9.1 | -0.4 | CC1(C)N=C(c2ccccc2)C(c2ccccc2)=N1 |

Copied from above (6 entries):
| Vif TR-FRET | MLL AF4-AF9 inh | Ecoli rRNA inh | Ecoli rRNA inh OD600 | Ecoli rRNA inh RFP | SMILES |
| --- | --- | --- | --- | --- | --- |
| 4.1% | 3.5 | -2.2 | -10.8 | 1.3 | CN(C(=O)c1cccc(NC(=O)Cc2cccc(NC(=O)C3CCN(C(=O)C4CCCCC4)CC3)c2)c1)C1CC1 |
| -4.7% | -0.1 | -3.8 | -4.2 | -6.6 | COc1ccc(NC(=O)c2sc3nc(N4CCOCC4)c4c(c3c2N)CCCC4)cc1 |
| 0.8% | 1.8&-0.6 | 8.1&0.5 | 11.2&1.3 | -0.8&1.5 | C[C@H]1CN([C@@H](C)CO)C(=O)CCCn2nncc2CO[C@H]1CN(C)C(=O)Nc1cccc(Oc2ccccn2)c1 |
| 12.1% | 2.8 | -6.6 | -8.7 | -1.0 | COc1ccc(S(=O)(=O)N2CC=C(c3ccccc3)CC2)cc1OC |
| 2.0% | -5.9 | 11.2 | 14.6 | -0.2 | CCN(CC)c1ncnc2c1nnn2C |
| 6.5% | -7.5 | 7.2 | 12.0 | 2.5 | [O-][N+](=C(c1ccccc1)c1ccccc1)c1ccccc1 |

Screens (PubChem BioAssay)

The list is partial. The share of hits here may be higher or lower than overall.
